Screening results from PubChem BioAssay.
KCNQ2 inh = KCNQ2 potassium channel inhibitors, primary screen, cell-based, CHO-K1, FluxOR thallium flux, B-score (AID 2156); O88943; 20 min; active compounds read low; only compounds with negative scores are shown here; some inactives read as strong as hits; B-score at 10 µM; 310,000 tested, 1.1% active;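 active = fluorescence ratio B-score at most minus 3 library SDs, with starting brightness B-score within 2 library SDs, cut at about -5.5 in these data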
Target sequence (O88943 whole entry, looked up): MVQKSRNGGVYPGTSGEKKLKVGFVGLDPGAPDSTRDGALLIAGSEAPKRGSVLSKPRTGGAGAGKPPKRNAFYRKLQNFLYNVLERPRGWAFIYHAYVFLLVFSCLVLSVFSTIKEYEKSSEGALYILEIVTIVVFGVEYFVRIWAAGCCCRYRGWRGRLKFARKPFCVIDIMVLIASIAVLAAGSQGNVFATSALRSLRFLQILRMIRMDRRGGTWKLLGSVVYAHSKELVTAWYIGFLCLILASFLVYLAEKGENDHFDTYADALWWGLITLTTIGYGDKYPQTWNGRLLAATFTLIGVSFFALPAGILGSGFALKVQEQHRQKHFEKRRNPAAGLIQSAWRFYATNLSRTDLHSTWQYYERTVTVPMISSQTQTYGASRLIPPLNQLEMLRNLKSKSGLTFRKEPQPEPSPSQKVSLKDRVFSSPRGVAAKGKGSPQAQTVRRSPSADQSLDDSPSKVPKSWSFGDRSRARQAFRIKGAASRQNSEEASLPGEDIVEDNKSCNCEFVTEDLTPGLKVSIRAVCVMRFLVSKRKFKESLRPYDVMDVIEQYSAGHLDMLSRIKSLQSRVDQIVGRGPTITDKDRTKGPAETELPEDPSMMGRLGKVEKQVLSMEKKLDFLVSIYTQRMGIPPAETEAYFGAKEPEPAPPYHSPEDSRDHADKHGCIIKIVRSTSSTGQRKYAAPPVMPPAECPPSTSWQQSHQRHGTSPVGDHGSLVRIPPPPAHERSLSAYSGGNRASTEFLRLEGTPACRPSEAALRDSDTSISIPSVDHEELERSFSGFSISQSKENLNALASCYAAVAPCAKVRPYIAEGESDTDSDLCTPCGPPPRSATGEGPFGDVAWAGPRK
KCNQ2 inh baseline = also measured in KCNQ2 inh; calls as there; B-score; measured here: initial fluorescence intensity artifact check;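 brightness before thallium and not channel activity; 0 = typical well and far values either way flag optical interference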
Active calls of the source: *; i = inactive. The list is partial. The share of hits here may be higher or lower than overall.

SMILES	KCNQ2 inh	KCNQ2 inh baseline
COC(=O)[C@H](NC(=O)c1cc(-c2ccccc2)nc2ccccc12)c1ccccc1	i	-0.85
CN(C)S(=O)(=O)c1ccc(C(=O)Nc2nnc(SCc3ccccc3)s2)cc1	i	-0.9
COc1ccc(C)cc1NC(=O)C1CCC(CNc2c(N3CCOCC3)c(=O)c2=O)CC1 (configuration not stated)	i	-0.07
Cc1ccc(C2C(C#N)=C(N)Oc3n[nH]c(-c4cccs4)c32)s1 (configuration not stated)	i	-1.1
O=C(CSc1nc2ccsc2c(=O)n1NC(=O)c1ccccc1)NCc1ccco1	i	4
C=CCSc1ncnc2sc(C)c(C)c12	i	-1.1
CC1CCN(CCCN2C(=O)C3C(C(=O)Nc4cccc(Cl)c4)C4C=CC3(O4)C2C(=O)NC2CCCCC2)CC1 (configuration not stated)	i	-0.02
COC(=O)c1ccccc1COn1c(=O)c(C)[n+]([O-])c2ccccc21	i	0.02
COc1ccc2[nH]c(C(=O)N3CCc4ccccc4C3)c(C)c2c1	i	0.92
Cc1ccc(-c2[nH][nH]c(=O)c(=O)c2N=Nc2ccccc2)cc1	i	-0.65
Cc1cccc(OCCCSc2nc3ccc(C)cc3[nH]2)c1	i	-1.2
CC(=O)c1cccc(NC(=O)NNC(=O)c2ccc3ccccc3c2)c1	i	0.12
O=c1[nH]cnc(O)c1C(c1ccc2c(c1)OCO2)c1c(O)nc[nH]c1=O	i	0.77
Cc1ccc(OCC(O)Cn2c(=N)n(Cc3ccccc3)c3ccccc32)cc1 (configuration not stated)	i	-1.2
COc1cc(OC)nc(NC(=O)C(C)C)n1	i	0.99
Cn1c(=O)c2sccc2n2c(CCCC(=O)NCc3ccco3)nnc12	i	-1.5
CCCCCCNS(=O)(=O)c1ccc(OC)c(OC)c1	i	1.2
CCOc1ccc(C(=O)N2CCC(C(=O)c3ccc4c(c3)OCCO4)CC2)cc1	i	-0.16
Cc1ccccc1CN1CCNC(=O)C1CC(=O)NCCN1CCCCC1=O (configuration not stated)	i	-0.06
COc1ccc(Cc2nnc(SC(C)C(=O)Nc3ccc(F)cc3Cl)o2)cc1 (configuration not stated)	i	1.1
Cc1ccc(S(=O)(=O)N2CCOCC2)cc1NC(=O)CSc1n[nH]c(N)n1	i	0.34
COc1cccc(CN2CCNC(=O)C2CC(=O)N(Cc2cnn(C)c2)C(C)C)c1 (configuration not stated)	i	0.28
CCOc1ccc(C(=O)C(CCC(CN(C)C)C(=O)c2ccc(OCC)cc2)CN(C)C)cc1 (configuration not stated)	i	-1.7
COc1cccc(CNC(=O)C2CC(=O)N(c3ccc4c(c3)OCCO4)C2)c1 (configuration not stated)	i	1.1
CC1C(=O)N2CCCc3cc(S(=O)(=O)N(C)c4ccccc4)cc1c32 (configuration not stated)	i	-0.98
Further results follow.
SMILES	KCNQ2 inh	KCNQ2 inh baseline
O=Nc1c(O)n(Cc2ccc(Cl)cc2)c2ccccc12	i	1.4
CC(=O)OCC(=O)[C@@]12OC3(CCCC3)O[C@@H]1C[C@H]1[C@@H]3CCC4=CC(=O)C=C[C@]4(C)[C@@]3(F)[C@@H](O)C[C@@]12C	i	2.5
Cc1cc(C)cc(NC(=S)N2CCC(NC(=O)c3ccc(F)cc3)CC2)c1	i	0.53
COc1ccc(NC2CCCN(C(=O)c3cccc(C)n3)C2)cc1OC (configuration not stated)	i	0.82
COc1ccc(/C=C(/C(=O)c2cccs2)N2C=CC=CC2=C(C#N)C#N)cc1	-7.9*	2.3*
Cc1ccc(-c2nc(CN(Cc3c(C)nn(C)c3C)C(C)C)c(C)o2)o1	i	1.5
CCN1CCN(C(c2cccs2)C(C)NC(=S)Nc2cccc(C)c2C)CC1 (configuration not stated)	i	-0.49
CCOc1ccc(N2CC(C(=O)Nc3ccc(F)cc3F)CC2=O)cc1 (configuration not stated)	i	0.48
COc1cccc(OCc2cc(C(=O)N3CCN(c4ccccc4OC)CC3)no2)c1	i	0.29
Cc1cc(C(=O)CSc2nnc(-c3ccco3)o2)c(C)n1-c1ccc2c(c1)OCCO2	i	1.3
Cc1cc(=O)[nH]c2ccc(S(=O)(=O)Nc3ccc(O)cc3)cc12	i	-0.46
CC(OC(=O)c1ccc(NS(=O)(=O)c2ccc3[nH]c(=O)[nH]c3c2)cc1)C(=O)Nc1ccc(Cl)cc1 (configuration not stated)	i	0.19
Cc1ccc(C(=O)N/C(=C/c2cccs2)C(=O)NCc2ccco2)cc1	i	2.4
Cc1cccc2cc(CN(Cc3ccco3)C(=O)c3ccco3)c(=O)[nH]c12	i	1.8
CCOC(=O)c1ccccc1NC(=O)c1ccccc1NS(C)(=O)=O	i	1.7
O=C(NCc1ccco1)C12CN(Cc3ccccc3)CC1C(c1ccc([N+](=O)[O-])cc1)=NO2 (configuration not stated)	i	1.2
COc1ccc(Cn2nnnc2C(c2ccccc2Cl)N2CCC(C(N)=O)CC2)cc1 (configuration not stated)	i	-1.9
COC(=O)c1ccc(NC(=O)Cc2ccccc2)cc1	i	0.18
CCN1C(=O)c2ccccc2S(=O)c2ccc(C(=O)N3CCN(C(=O)c4ccco4)CC3)cc21 (configuration not stated)	i	-0.89
Cc1nc(N2CCOCC2)sc1C(=O)NN	i	2.2
O=C(c1ccc2nc[nH]c2c1)N1CCc2ccccc2C1	i	0.83
CCCCN=Cc1c(C)[nH]n(-c2ccccc2)c1=S	i	1.4
COc1ccc(CCNC(=O)[C@H](C)NC(=O)[C@@H]2CSC3c4ccccc4C(=O)N32)cc1 (some centres not stated)	i	2
COc1ccc(C(=O)C2CCCN(Cc3ccc4nonc4c3)C2)c(OC)c1 (configuration not stated)	i	0.56
c1ccc(N2CCOCCOCCOCCOCC2)cc1	i	1.5
Remaining list, next part:
SMILES	KCNQ2 inh	KCNQ2 inh baseline
Cc1cccc(/C=C(\C(=O)C(=O)O)c2ccc3ccccc3n2)c1	i	-1
COc1ccc(CCNC(=O)CNC(=O)Cn2ccc3ccccc3c2=O)cc1OC	i	-0.02
CCc1cc2c(=O)n(-c3ccc(Br)cc3)cnc2s1	i	-0.24
CC(C)Cc1ccc(CN2CCC(n3nccc3NC(=O)C3CCCC3)CC2)cc1	i	-0.34
Cc1ccc(NC(=O)CN(C)CC(=O)Nc2sc3c(c2C(N)=O)CCC3)cc1	i	1.6
COc1cccc(N=Cc2c[nH][nH]c2=O)c1	i	0.03
COc1ccccc1CNC(=O)C1CCN(C(=O)[C@@H]2Cc3ccccc3CN2)CC1	i	-0.62
COc1cc2c(cc1OC)/C(=C/C(=O)c1ccc(C)cc1)NCC2	i	-0.65
CSc1ccc(S(=O)(=O)Nc2ccc(NC(C)=O)cc2)cc1	i	-1.3
O=C(c1ccc2c(c1)OCO2)N1CCC2(CC1)Oc1ccc(Cl)cc1C(=O)C21CC(c2ccccc2)=NO1 (configuration not stated)	i	-1.2
O=C(Nc1ccc2c(c1)OCCO2)C1CCN(C(=O)c2ccc([N+](=O)[O-])cc2)CC1	i	-0.01
Oc1ccc(-n2cccc2/C=N/n2cnnc2)cc1	i	-0.25
O=C(CSc1ccc(Cl)cc1)Nc1cccc(-c2nnc(-c3ccco3)o2)c1	i	-0.11
CCOC(=O)Cc1nn(C)c(=O)c2ccccc12	i	0.94
CNC(=O)c1ccsc1NC(=O)CN1C(=O)CCC1=O	i	-0.49
O=[N+]([O-])c1c(Nc2ccccc2)ccc2nonc12	i	0.37
O=C(/C=C/c1ccccc1)N/C(=C/c1ccccc1)C(=O)N1CCCCC1	i	-1.6
S=c1[nH]nc(-c2ccncc2)n1/N=C/c1cn(-c2ccccc2)nc1-c1ccc(Cl)cc1	i	-0.27
COCCC(=O)N1CCC(C(=O)Nc2ccc(Oc3ccccc3)nc2)CC1	i	-0.73
O=C(c1ccc(Br)o1)N1CCN(c2ccccc2F)CC1	i	4
Cc1ccc(N(Cc2cc(=O)[nH]c3ccccc23)C(=O)CCl)cc1	i	0.81
Oc1ccc(/C=N/NC2=NCCCCC2)cc1	i	-0.01
CCOC(=O)C1CCN(S(=O)(=O)c2ccc3c(c2)NC(=O)C(C)C(=O)N3)CC1 (configuration not stated)	i	-0.34
Cc1cc(/C=C(\C#N)C(=O)N2CCCCC2)cc(C)c1O	i	1.9
COc1cc(/C=C2/C(=N)N3N=C(C(C)C)SC3=NC2=O)ccc1OS(=O)(=O)c1ccccc1	i	0.95
The listing continues.
SMILES	KCNQ2 inh	KCNQ2 inh baseline
C=CCN(C(=O)c1cccc(N2C(=O)C3CC=CC(C)C3C2=O)c1)c1ccccc1 (configuration not stated)	i	-0.74
COc1ccc(Cl)cc1NC(=O)CNc1ccccc1CN(C)C1CCCCC1	i	-0.12
CCCCNC(=O)[C@@H]1CC=C[C@@H]2CCN(Cc3ccc(Cl)c(Cl)c3)C(=O)[C@@H]21	i	0.14
Cc1ccc(CSCC(=O)N(C)CC(=O)Nc2ccccc2C(F)(F)F)cc1	i	-0.75
CCc1ccccc1NC(=S)N(Cc1cccc(C)c1)c1cccnc1	i	0.01
COCCN1C(=O)c2oc3ccccc3c(=O)c2C1c1ccc(OC)c(OC)c1 (configuration not stated)	i	0.82
Oc1c(Br)cc2oc3c(c2c1CNCc1ccccc1)CCCC3	i	-0.01
CN=C(Nc1ccc(Cl)cc1)c1ccc(C(F)(F)F)cc1	i	-1.9
Cc1ccc(-c2onc3ccc(C(=O)/C=C/N(C)C)cc23)cc1	i	-0.49
COc1ccc2[nH]c(C(=O)Nc3ccc4c(c3)OCO4)cc2c1	i	-0.17
CC(C)C(NC(=O)c1ccco1)C(=O)OCc1cc([N+](=O)[O-])cc2c1OCOC2 (configuration not stated)	i	0.74
Cc1cccc(-c2nc(CSCC(=O)N3CCN(Cc4ccc5c(c4)OCO5)CC3)c(C)o2)c1	i	0.02
COc1cc(NC(=O)C2CCN(S(=O)(=O)c3ccc4[nH]c(=O)oc4c3)CC2)cc(OC)c1	i	0.54
O=C(C1COc2ccccc2O1)N1CCN(c2nc3c(F)cc(F)cc3s2)CC1 (configuration not stated)	i	-0.31
COC(=O)Nc1ccc(S(=O)(=O)NNC(=O)c2c(O)c3ccccc3[nH]c2=O)cc1	i	1.3
COCCSc1nnc(NS(=O)(=O)Cc2ccccc2)s1	i	-0.21
CCOC(=O)C1CCCN(C(=O)c2ccc(-c3ccc([N+](=O)[O-])cc3)o2)C1 (configuration not stated)	i	-3.4
Cc1cc(=O)[nH]c(N/N=C/C=C/c2ccccc2)n1	i	0.82
CCc1ccc(OCC(O)CN2CCN(CCO)CC2)cc1 (configuration not stated)	i	0.51
COC(=O)c1[nH]c2cc(OC)ccc2c1NC(=O)CN1CCOCC1	i	-0.9
O=C(Nc1ccc(F)cc1)c1cc(S(=O)(=O)N2CCCCC2)ccc1F	i	0.7
CCOC(=O)c1ccc(NC(=O)CN2CCc3ccccc3C2)cc1	i	1.1
CCc1nnc(NC(=O)C(CC)c2ccccc2)s1 (configuration not stated)	i	0.4
COc1ccc(/C=C2\NC(=O)C(C=NCc3ccccc3)=C2O)cc1	i	-2
COc1ccc2nc(N(Cc3ccccc3)C(=O)CCNC(C)=O)sc2c1	i	0.11

Reformatted as labelled records: two of the compounds above.
> COCCN1C(=O)c2oc3ccccc3c(=O)c2C1c1ccc(OC)c(OC)c1 (configuration not stated)
  KCNQ2 inh = i
  KCNQ2 inh baseline = 0.82

> C=CCN(C(=O)c1cccc(N2C(=O)C3CC=CC(C)C3C2=O)c1)c1ccccc1 (configuration not stated)
  KCNQ2 inh = i
  KCNQ2 inh baseline = -0.74

(cont.)
SMILES	KCNQ2 inh	KCNQ2 inh baseline
COc1ccc(NCc2nnc(SCC(=O)Nc3ccccc3)n2C)cc1	i	0.56
CC1(C)Cc2ccccc2-c2nnc(SCC(=O)N3CCN(c4ccccc4)CC3)n21	i	-0.88
CSc1oc(-c2ccco2)nc1S(=O)(=O)c1ccc(Br)cc1	i	0.73
C=CCc1ccccc1OCC(O)Cn1ccnc1C (configuration not stated)	i	-0.65
Brc1ccccc1OCCCOc1cccc2cccnc12	i	-0.06
Cc1ccc(S(=O)(=O)N2CCC(C(=O)OCc3ccc([N+](=O)[O-])cc3)CC2)cc1	i	-0.41
CCSc1nc(-c2ccccc2)nc(C(Cl)Cl)n1	i	1.4
Cc1ccc(COn2c(-c3ccc(Cl)cc3Cl)nc3ncccc32)cc1	i	2.2
COc1ccccc1N(CC(=O)NCCC1=CCCCC1)S(=O)(=O)c1ccccc1	i	0.38
O=C(CCC1COc2ccccc2O1)N1CCCC1 (configuration not stated)	i	-2.7
O=[N+]([O-])c1ccc(Sc2cccc[n+]2[O-])c2nonc12	-15*	-2*

Arranged by SMILES length (highest first): part of the list above.
SMILES	KCNQ2 inh	KCNQ2 inh baseline
Cc1ccc(S(=O)(=O)N2CCC(C(=O)OCc3ccc([N+](=O)[O-])cc3)CC2)cc1	i	-0.41
COC(=O)Nc1ccc(S(=O)(=O)NNC(=O)c2c(O)c3ccccc3[nH]c2=O)cc1	i	1.3
CCOC(=O)C1CCCN(C(=O)c2ccc(-c3ccc([N+](=O)[O-])cc3)o2)C1 (configuration not stated)	i	-3.4
CC1(C)Cc2ccccc2-c2nnc(SCC(=O)N3CCN(c4ccccc4)CC3)n21	i	-0.88
COc1ccccc1N(CC(=O)NCCC1=CCCCC1)S(=O)(=O)c1ccccc1	i	0.38
O=C(Nc1ccc(F)cc1)c1cc(S(=O)(=O)N2CCCCC2)ccc1F	i	0.7
O=[N+]([O-])c1ccc(Sc2cccc[n+]2[O-])c2nonc12	-15*	-2*
COC(=O)c1[nH]c2cc(OC)ccc2c1NC(=O)CN1CCOCC1	i	-0.9
COc1ccc(NCc2nnc(SCC(=O)Nc3ccccc3)n2C)cc1	i	0.56
CCOC(=O)c1ccc(NC(=O)CN2CCc3ccccc3C2)cc1	i	1.1
Cc1cc(=O)[nH]c(N/N=C/C=C/c2ccccc2)n1	i	0.82
COCCSc1nnc(NS(=O)(=O)Cc2ccccc2)s1	i	-0.21
CCc1ccc(OCC(O)CN2CCN(CCO)CC2)cc1 (configuration not stated)	i	0.51
CCSc1nc(-c2ccccc2)nc(C(Cl)Cl)n1	i	1.4
CCc1nnc(NC(=O)C(CC)c2ccccc2)s1 (configuration not stated)	i	0.4
Brc1ccccc1OCCCOc1cccc2cccnc12	i	-0.06
O=C(CCC1COc2ccccc2O1)N1CCCC1 (configuration not stated)	i	-2.7
C=CCc1ccccc1OCC(O)Cn1ccnc1C (configuration not stated)	i	-0.65
